UCH37 inh – blocks the human deubiquitinase UCH37; Q9Y5K5; purified proteasome/UCH37, Ub-AMC cleavage fluorescence; inhibition, % (no concentration beside the values); 0.33% of 330,000 active;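 active means mean of two replicates above 20%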;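 further: 0% = compound-free wells with enzyme and 100% = wells lacking proteasome; stock transfer was 100 nL into about 20 µL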
Target sequence (Q9Y5K5 whole entry, looked up): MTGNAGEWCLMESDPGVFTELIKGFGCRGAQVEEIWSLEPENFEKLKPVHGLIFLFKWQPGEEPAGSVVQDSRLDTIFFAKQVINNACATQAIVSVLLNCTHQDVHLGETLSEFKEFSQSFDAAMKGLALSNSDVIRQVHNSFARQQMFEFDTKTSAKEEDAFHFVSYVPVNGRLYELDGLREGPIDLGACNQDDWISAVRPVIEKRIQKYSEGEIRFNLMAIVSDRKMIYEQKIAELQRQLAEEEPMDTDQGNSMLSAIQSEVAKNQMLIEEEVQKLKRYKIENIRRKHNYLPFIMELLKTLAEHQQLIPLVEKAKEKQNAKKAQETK
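Signal – fluorescence, ex 355 nm, em 460 nm · System – Proteasome-bound UCH37 · Input – 0.15 nM proteasome as dispensed · Timing – 30 min preincubation with enzyme, 25 min cleavage at room temperature · Read-out basis – percent inhibition of cleavage signal versus uninhibited and no-proteasome wells · Medium – Tris-HCl pH 7.4 with ATP-MgCl2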
A1 inh – inhibitors of the anti-apoptotic protein A1, read as caspase activation; caspase activation, % (concentration not given with the values); AID 2462; MEF A1-2A-BIM cells, Caspase-Glo 3/7 luminescence, 3 h; percent of clofoctol response, vehicle zero; 0.066% of 330,000 active;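 active means over half of replicate activation scores above 10%, or exactly half above 10 with the replicate mean above 10; inconclusive means replicate mean below 10 yet half the replicates above 10; inactive means over half of replicates below 10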;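 further: wells of about 30 µL received 50 nL stock; many hits fall short of the cut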
Beta2AR agonist – human beta-2 adrenergic receptor agonism by FAP; P07550; Am2.2-beta2AR cells, FAP receptor internalization, flow cytometry; reference of the scale not given here; response, % (concentration not given with the values); 0.43% of 340,000 active; AID 504454;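 active means response above a set limit, near 3 SD of response in nonfluorescent compounds, cut at about 42% in these data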;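 further: stock transfer was 100 nL into about 11 µL; a reference agonist was the positive control; negative values mostly stem from fluorescent compounds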
E coli growth – inhibitors of Escherichia coli growth; OD600, 23 h; hits give low values; OD600 absorbance (test concentration not listed); 0.21% of 330,000 active;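 active means OD600 absorbance below the run mean of sample wells minus 3.6 SD, in any replicate, cut at about 0.56 in these data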;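 further: stock transfer was 300 nL into about 60 µL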
HNF4A DNA FP – change in binding of human HNF4 alpha to DNA; HNF4a-FITC DNA binding, fluorescence polarization, 1 h; activity change, % at 10 µM; 0.3% of 360,000 active; AID 1224865; in the data active means activity change above about 30%, passing the limit was not always enough;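 further: controls were the assay level and a saturating level of protein; the project sought stronger binding though the title names inhibitors; some compounds called inactive have numbers as strong as hits; positive values seem to mean higher polarization but the record does not say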
Target sequence (P41235 whole entry, looked up): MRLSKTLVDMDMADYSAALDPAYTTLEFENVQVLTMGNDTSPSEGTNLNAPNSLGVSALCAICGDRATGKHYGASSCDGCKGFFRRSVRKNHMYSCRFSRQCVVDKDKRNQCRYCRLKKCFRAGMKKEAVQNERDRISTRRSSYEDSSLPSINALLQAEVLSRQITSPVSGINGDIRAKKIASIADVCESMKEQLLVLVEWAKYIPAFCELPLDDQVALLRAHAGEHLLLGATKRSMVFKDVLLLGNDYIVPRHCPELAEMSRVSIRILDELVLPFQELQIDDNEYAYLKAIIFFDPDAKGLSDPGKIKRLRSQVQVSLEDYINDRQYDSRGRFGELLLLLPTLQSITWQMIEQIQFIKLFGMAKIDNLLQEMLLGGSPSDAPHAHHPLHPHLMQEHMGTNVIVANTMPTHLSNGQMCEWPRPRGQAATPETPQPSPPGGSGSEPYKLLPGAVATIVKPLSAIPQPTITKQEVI
Vif A3G – inhibitors of Vif binding to APOBEC3G peptide, primary screen, biochemical, TR-FRET, GST-Vif 1-94, biotin-A3G peptide, dose response retest (AID 1117319) | 0.57% of 260,000 active | TR-FRET GST-Vif / biotin-A3G peptide binding; higher % means a stronger effect; test concentration not given here; strong numbers were not always called active | one-dose inhibition, %; IC50 in µM for titrated hits;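 active means above the screen mean plus three standard deviations and confirmed in dose response; inconclusive means results disagree or hit not tested in dose response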;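 further: Vif residues 1-94 fused to GST binding biotinylated APOBEC3G peptide 110-148; 0% = full assay without inhibitor and 100% = GST in place of GST-Vif; retest series ran down from 100 µM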
LANA-H2B inh – blocks KSHV LANA binding to histone H2A/H2B. Q9QR71. cell-free LANA-H2A/H2B peptide, fluorescence polarization. inhibition, % (no concentration beside the values). 0.6% of 320,000 active. AID 2629; in the data active means inhibition mostly above about 10%, no sharp cut-off; inactive means mostly below about 6.7%;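 further: stock transfer was 7.5 nL into about 10 µL; 0% = median of vehicle wells and 100% = median of positive control wells; one replicate is shown; the record names a cut of 25% in any replicate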
Starred values were filed as active, the others as inactive; ? = inconclusive; . = no result given; & = joins results of further samples.

SMILES	UCH37 inh	A1 inh	Beta2AR agonist	E coli growth	HNF4A DNA FP	Vif A3G	LANA-H2B inh
CN1C2=NCCN2C(=O)c2ccccc21	0.0	0.2	-4	0.69	-1.6	?	3.4
Cc1cccc(NC(=S)NC2CC3CCC(C2)N3Cc2ccco2)c1 (stereo not given)	3.0	-0.2	5	0.64	0.0	18%	0.6
CCCC(C(=O)NC1CCCC1)N(CC1CCCO1)C(=O)CNS(=O)(=O)c1ccccc1 (stereo not given)	-0.2	-0.9	-3	0.66	1.4	4%	-8.0
CC1CNC(=S)N(c2ccccc2)C1=O (stereo not given)	.	.	-4	.	0.2	0%	.
CCOC(=O)c1cnc2c(ccc3ccccc32)c1NCCCN(C)C	-35	1.1	-1	0.69	-4.7	-2%	-4.8
CC(=O)Nc1ccc(-n2c(=O)c3ccccc3c3ccccc3c2=O)cc1	1.6	0.1	19	0.69	-8.1	3%	3.6
CCc1nnc(N/N=C/c2ccc(N3CCC(C)CC3)c([N+](=O)[O-])c2)n1N	.	0.3	-1	.	-0.1	18%	4.9
Cn1c(=O)n(CC(=O)O)c(=O)c2c1nc1n2CCCN1CCc1ccccc1	0.8	0.2	1	0.7	1.9	.	0.8
Cc1ccc(-c2ccc(=O)n(CC(=O)NCCN(C)C)n2)cc1	-10	0.4	7	0.7	-0.5	30%	-1.2
CC(C)(C)C(=O)N1CCN(c2c(Cl)cccc2[N+](=O)[O-])CC1	4.1	-0.6	10	0.7	-4.1	13%	0.0
COCCN(C(=O)COC(=O)CCCOc1ccc(OC)cc1)c1c(N)n(Cc2ccccc2)c(=O)[nH]c1=O	0.7	-0.8	-3	0.7	6.6	3%	0.7
CC(C)OCCCn1c(=O)c2ccccc2n2c(CCC(=O)N3CCN(c4ccccn4)CC3)nnc12	0.2	1.2	-11	0.68	1.3	.	4.1
Cc1cc(Br)cc(Cl)c1OC(=O)c1ccncc1	1.0	-0.9	11	0.64	-0.4	.	-11
O=[N+]([O-])c1cc(-c2ccc(/C=N\n3cnnc3)o2)cc([N+](=O)[O-])c1	.	-0.3	2	.	-4.0	.	4.0
COc1ccc(-c2cc(C(F)(F)F)nc(NC3CCCC3)n2)cc1OC	-44	-0.5	-5	0.72	-3.1	-3%	-1.9
O=C(CCNC(=O)c1ccccc1)NC1CCCc2ccccc21 (stereo not given)	3.4	.	-5	0.7	-1.9	-2%	.
Cc1ccc(C(=O)COC(=O)CCC(=O)Nc2cccc(Cl)c2)cc1[N+](=O)[O-]	3.3	-0.8	5	0.77	0.1	2%	-2.6
Cc1c(C(=O)CN2CCOCC2)[nH]c2ccccc12	4.3	1.7	5	0.73	0.1	2%	4.5
COc1cc(C2=NOC(C(=O)NC3CCCCC3)C2)cc(OC)c1OC (stereo not given)	4.4	0.3	-6	0.72	-4.4	-6%	-1.2
Cc1ccc(NC(=O)CSc2ccc(-c3ccccn3)nn2)c(C)c1	-1.2	-0.8	-3	0.71	-0.6	-5%	-0.7
Cc1ccc(S(=O)(=O)NCc2ccccc2)cc1C(=O)N(C)CC(=O)Nc1ccccc1Br	1.1	.	7	0.67	-3.7	.	.
Cn1cc(C(=O)N/N=C/C(Br)=C/c2ccccc2)ccc1=O	.	-0.1	-40	.	-1.2	.	-1.4
CCCCOC(=O)c1ccc(NC(=O)c2ccccc2OC)cc1	2.1	-5.9	-6	0.65	0.2	.	-3.8
O=C(COC(=O)c1cn(-c2ccccc2)nc1-c1ccccc1)Nc1ncc(Cl)cc1Cl	1.1	-0.2	2	0.77	16	-25%	0.9
Cc1ccccc1OC(C)C(=O)Nc1ccc2c(c1)OCCO2 (stereo not given)	3.2	0.3	-2	0.69	-1.5	-6%	4.9

Fetched by compound from the list above (2):
SMILES	UCH37 inh	A1 inh	Beta2AR agonist	E coli growth	HNF4A DNA FP	Vif A3G	LANA-H2B inh
CC(=O)Nc1ccc(-n2c(=O)c3ccccc3c3ccccc3c2=O)cc1	1.6	0.1	19	0.69	-8.1	3%	3.6
Cn1cc(C(=O)N/N=C/C(Br)=C/c2ccccc2)ccc1=O	.	-0.1	-40	.	-1.2	.	-1.4

(listing goes on)
SMILES	UCH37 inh	A1 inh	Beta2AR agonist	E coli growth	HNF4A DNA FP	Vif A3G	LANA-H2B inh
COc1ccc(OC)c(NC(=O)Nc2cc(NC(=O)Nc3cc(OC)ccc3OC)c(C)nc2C)c1	3.2	1.0	-10	0.7	-2.6	13%	-2.3
CCOC(=O)CCSc1nc(C(C)(C)C)cc(C(F)(F)F)c1C#N	1.1	0.3	5	0.63	-13	30%	-2.2
CCOc1ccc(CCNC(=O)c2nnn(CC(=O)Nc3ccc(OC)cc3)c2N)cc1OCC	3.9	-0.7	0	0.69	-2.9	.	-1.3
Cc1ccc(C)c(OCCC(=O)NNC(=O)c2cc(C)oc2C)c1	-3.7	-0.4	-9	0.68	0.9	-3%	3.2
COc1ccc(S(=O)(=O)Nc2ccccc2C(=O)NC(C)(C)C)cc1OC	-3.6	0.3	0	0.73	-2.0	1%	-30
CCN(CC)S(=O)(=O)c1ccc2c(c1)nc(CCC(=O)Nc1ccc3c(c1)OCO3)n2CC	5.6	-0.5	1	0.7	3.7	.	0.3
CC(C)C(NC(=O)c1ccc(C(C)(C)C)cc1)C(=O)NCC1(N(C)C)CCCCC1 (stereo not given)	1.9	0.7	-4	0.7	-1.9	?	5.4
COc1cc(OC)cc(C(=O)Nc2cccc(-c3ccc(N4CCOCC4)nn3)c2)c1	-0.7	0.1	4	0.65	0.2	-25%	1.9
COc1ccccc1CNC(=O)c1cc(C)nn1-c1ccccc1	0.7	0.6	8	0.7	-0.3	17%	-2.5
COc1ccc(N(CC(=O)Nc2ccccc2C(=O)N2CCCC2)S(C)(=O)=O)cc1	-0.7	0.7	1	0.71	23	.	0.8
COc1cc([C@H]2c3c(cc(OC)c(O)c3OC)C[C@@H](CO)[C@@H]2CO[C@@H]2O[C@H](CO)[C@@H](O)[C@H](O)[C@H]2O)cc(OC)c1O	-0.7	0.0	-6	0.73	4.3	.	-0.1
CCc1cc2cc(C(=O)Nc3ccccc3F)sc2s1	-1.1	-8.7	2	0.75	-0.6	-34%	2.3
Cc1ccc(Nc2nc(N)c(C#N)c(CC#N)c2C#N)cc1	-25	-0.2	7	0.73	3.1	.	9.9
COc1ccc(Oc2c(C)nc(SCC(=O)c3ccc(Cl)cc3)[nH]c2=O)cc1	2.3	1.5	1	0.67	2.5	.	0.1
CCCC(=O)Nc1ccc(C(=O)NN2C(=O)c3ccccc3C2=O)cc1	7.0	-1.7	-1	0.7	0.6	-1%	1.0
OCCC1CN(Cc2ccon2)CCN1Cc1ccccc1 (stereo not given)	1.3	-0.1	4	0.66	-0.9	.	-1.2
O=C(NCCS(=O)(=O)N1CCN(c2ccccc2F)CC1)C1CC(=O)N(c2ccccc2)C1 (stereo not given)	0.7	1.8	-5	0.73	-4.1	.	-2.0
CC(=O)c1c(C)[nH]c(C(=O)OCc2nnc(-c3ccc([N+](=O)[O-])cc3)o2)c1C	1.4	-1.2	1	0.65	1.3	.	-1.2
CCOC(=O)Cc1csc(SC(C)C(=O)NCC(=O)Nc2ccc(F)c(F)c2F)n1 (stereo not given)	0.2	0.5	8	0.64	0.0	4%	-2.7
C/C(=N/NC(=O)COc1ccc(C(C)(C)C)cc1)c1ccc(N2CCOCC2)cc1	-2.4	.	1	0.69	1.8	3%	.
CCN(CC)S(=O)(=O)c1ccc(Cl)c(C(=O)NNC(=O)c2csc(N3CCOCC3)n2)c1	0.6	.	-2	0.69	-2.2	.	.
CCc1ccccc1NC(=O)CSc1nc2n[nH]c(C)c2c(=N)n1-c1cccc(OC)c1	-2.4	-0.6	0	0.66	2.3	18%	5.3
O=C(N/N=C/c1ccccn1)c1ccc(NC(=O)c2ccc(F)cc2)cc1	.	1.1	-7	.	-4.8	.	-0.5
Cc1ccccc1CC(=O)N1CCCC(CNC(=O)c2ccc(F)cc2)C1 (stereo not given)	-0.7	1.1	4	0.72	3.2	-4%	6.4
Cc1ccc(CN2CCN(Cc3cc(=O)c4ccccc4[nH]3)CC2CCO)o1 (stereo not given)	3.7	0.9	-1	0.71	5.2	-2%	1.2

One compound at a time, as listed above. Values in the order: UCH37 inh	A1 inh	Beta2AR agonist	E coli growth	HNF4A DNA FP	Vif A3G	LANA-H2B inh
Record of CCOC(=O)Cc1csc(SC(C)C(=O)NCC(=O)Nc2ccc(F)c(F)c2F)n1 (stereo not given) : 0.2	0.5	8	0.64	0.0	4%	-2.7
Record of O=C(N/N=C/c1ccccn1)c1ccc(NC(=O)c2ccc(F)cc2)cc1 : .	1.1	-7	.	-4.8	.	-0.5

(listing goes on)
SMILES	UCH37 inh	A1 inh	Beta2AR agonist	E coli growth	HNF4A DNA FP	Vif A3G	LANA-H2B inh
COc1cc2[nH]c3c(OC)ncnc3c2cc1OC	-8.1	-1.9	4	0.69	-3.4	-1%	-1.6
COc1cc(/C=N/NC(=O)c2[nH]nc3c2CCc2ccccc2-3)ccc1O	.	-0.8	7	.	-2.0	3%	0.3
CCOc1ccc(CCNC(=O)Cn2c(-c3nonc3N)nc3ccccc32)cc1OCC	3.5	-0.4	4	0.69	5.5	2%	-10
CC1CC(C)CN(S(=O)(=O)c2ccc(C(=O)NCc3ccco3)cc2)C1 (stereo not given)	1.5	-0.3	10	0.69	-1.6	23%	0.3
CC1c2cc3c(cc2CCN1S(=O)(=O)c1ccccc1)OCCCO3 (stereo not given)	1.4	-0.7	-2	0.66	-2.6	.	-4.2
COc1cc(N=c2c([N+](=O)[O-])nn(-c3ccc4c(c3)OCCO4)n2O)cc(OC)c1	.	-0.6	9	.	1.9	2%	.
CNC(=O)c1cc(S(=O)(=O)NC2CCCCCC2)ccc1C	1.1	.	-7	0.69	0.9	-5%	.
Fc1cccc2sc(Nc3nc4cc5c(cc4s3)OCO5)nc12	-88	-2.2	13	0.69	-1.6	6%	5.4
NC(=O)C1CCN(C(=O)C2c3ccccc3C(=O)N3CCc4ccccc4C23)CC1 (stereo not given)	6.1	1.4	14	0.67	0.2	32%	5.0
CCN(CC)CCOC(=O)c1ccc(NC(=O)C2(c3ccccc3)CCCC2)cc1	2.5	1.2	-2	0.68	-0.8	-5%	4.0
Cc1ccc(NC(=O)CN(C)C(=O)CNC(=O)c2sc3ccccc3c2Cl)cc1	1.7	-5.8	-3	0.7	-0.4	-33%	-2.9
CCCn1cc(NC(=O)c2cc3n(n2)C(C(F)(F)F)CC(c2ccccc2)N3)cn1 (stereo not given)	-2.3	-0.4	10	0.68	1.7	12%	-0.6
O=C(CN1CCN(c2ccc(F)cc2)CC1)Nc1ccc(F)c(F)c1	-0.7	0.3	7	0.72	-1.4	-1%&2%	0.7
COc1ccc(CCN2C(=O)N(c3ccc(OC)cc3)C(=O)C2CC(=O)Nc2ccccc2)cc1 (stereo not given)	1.6	0.4	-3	0.68	-0.5	3%	-2.7
O=C(c1ccccc1F)N1CCN(C2CCC(c3ccccc3)CC2)CC1 (stereo not given)	3.5	-0.8	2	0.66	-2.2	2%	2.4
O=C(Cn1cnc2ccccc2c1=O)NCC(=O)N1CCN(c2ccccn2)CC1	0.6	0.1	-16	0.75	-7.7	13%	5.7
COc1ccc(NC(=O)C2CC(c3cc(OC)c(OC)c(OC)c3)=NO2)cc1OC (stereo not given)	6.4	0.8	5	0.69	-1.0	4%	-5.7
O=S(=O)(c1ccc(Cl)cc1)N(CCCN1CCOCC1)Cc1cccs1	-1.6	0.1	-4	0.7	1.3	-5%	-5.4
Cc1cccc(/N=C/c2c(O)cc(C)oc2=O)n1	.	-0.7	0	.	1.4	?	3.3
CSc1nc2ccc(NC(=O)NC(=O)c3c(F)cccc3F)cc2s1	0.5	-1.1	-2	0.69	-2.1	-6%	-0.7
CC(OC(=O)CCc1c[nH]c2ccccc12)C(=O)c1ccccc1 (stereo not given)	-1.7	-1.0	3	0.69	1.0	-2%	-6.0
